Screens: PubChem, PCMD
Calb biofilm kill – mixtures killing C. albicans biofilm. C. albicans biofilm persisters + clotrimazole, fluorescence viability; primary screen in compound mixtures of four per well. AID 1242. hit rate 0.02% among 120,000. inhibition, % at 7.6 µM;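 active means inhibition above 30.3% in the primary screen of four-compound pools, then above 30% when the compound was retested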;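 further: compounds exposed to preformed 24 h biofilms for 48 h; the number belongs to the whole pool; some results filed as inactive read as strong as hits; inactives centre near 12; 0% = biofilm with clotrimazole alone and 100% = kill control; retested singly at about 60 µM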
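Test system: C. albicans biofilms. Buffer or medium: RPMI/MOPS medium, pH 7.0. Timing: 48 h compound exposure at 37 °C. Technique: Alamar Blue fluorescence. Evaluation: percent inhibition of biofilm viability.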
* hit, by the source's call.

SMILES	Calb biofilm kill
Cn1cc(Cl)nc1C(O)c1ccccc1 (centres undefined)	5
Cc1cc2ccccn2c1C(=O)c1cc([N+](=O)[O-])cc([N+](=O)[O-])c1	-7
CC(=O)c1cc(-c2ccc(F)cc2)n(CCC(=O)NC(C)(C)C)c1C	15
O=c1[nH]c(C2CCCCC2)nc2ccccc12	3
Cc1ccc(C(=O)N2CCN(S(=O)(=O)c3ccc(C)c([N+](=O)[O-])c3)C2)cc1	16
CCCCCC(=O)Nc1cccc(C2=NOC3(C2)C[C@H](C(N)=O)N(C(=O)[C@H]2CCC(=O)N2)C3)c1 (some centres undefined)	11
CC(C)(O)C#Cc1ccc([C@@H]2C[C@H]3CN(c4ccccc4)C(=O)[C@]34CCCN24)s1	21
O=S1(=O)[C@H]2C[C@@H]3CC[C@]2(CN1Cc1cccc(F)c1)O3	5
Cc1ccc(NC(=O)COC(=O)c2ccccc2-c2nc3ccccc3s2)c(C)c1	7
O=C(Cn1cnc2c(nnn2Cc2ccc(F)cc2)c1=O)Nc1ccccc1	17
NNc1nc2c(F)cc(F)cc2s1	16
CC(C)c1ccc(OCC(=O)Nc2cccc(C(=O)Nc3ccccc3C(=O)O)c2)cc1	16
Cc1ccc(NC(=O)c2ccc3c(c2)OCCO3)cc1S(=O)(=O)Nc1cccc(Cl)c1	22
CN1CCN(C(=O)C2=C[C@H](c3ccc(C(F)(F)F)cc3)C[C@H](OCc3ccc(CO)cc3)O2)CC1	10
Cc1cccc2nc(-c3ccccc3)nc(N[C@@H](CO)c3ccccc3)c12	0
COc1ccc2[nH]c3c(=O)n(N)c(C)nc3c2c1	8
CN(C)C(/C=C/Nc1cccc(Br)c1)=C(C#N)C#N	14
CCOC(=O)/C=c1\s/c(=C\c2ccc(C#N)cc2)c(=O)n1CC(=O)NCc1ccco1	23
COc1c2c(c(C)c3c1C(=O)OC3)O[C@@]1(C)CC[C@@]3(O)C(C)(C)OC(=O)CC[C@]3(C)[C@H]1C2	12
CCNc1ccc(C(=O)OCC(=O)NC(C)c2ccccc2)cc1[N+](=O)[O-] (centres undefined)	4
Cn1c(SCC(=O)N2CCCC2=O)nc2ccccc21	6
CCOC(=O)/C=C/C(=O)OCC(=O)Nc1c(Cl)cccc1Cl	16
O=C(CC(c1ccccc1)c1ccccc1O)NCc1ccccc1Cl (centres undefined)	15
COc1ccc(N=Nc2c(N)n[nH]c2N)cc1	12
CSCCOC(=O)COc1ccc(/C=N/NC(=O)c2c(Cl)cnn2C)cc1	18
COCCN(C(=O)CC1C(=O)NCCN1CC(c1ccccc1)c1ccccc1)C(C)C (centres undefined)	9
CC#CC(=O)N1CCC(CO)(CCc2ccccc2)CC1	19
CC(C(=O)Nc1cccnc1)c1ccc([N+](=O)[O-])cc1 (centres undefined)	6
CC1(C)CC(=O)c2c(S(C)(=O)=O)sc(Br)c2C1	17
O=C(CNCC1CCCO1)NCc1ccco1 (centres undefined)	25
O=C(Nc1ccc2c(c1)C(=O)N(c1ccccc1)C2=O)C1CCCO1 (centres undefined)	9
Nc1nc(=S)n(-c2ccccc2)[nH]1	11
O=C(C[n+]1ccccc1)N/N=C/c1ccccc1F	7
Cc1onc(-c2c(F)cccc2Cl)c1C(=O)NC(=S)Nc1c(C)n(C)n(-c2ccccc2)c1=O	4
Cc1[nH]c(=O)[nH]c(=O)c1/C=N/NC(=O)CCCCCNC(=O)OC(C)(C)C	1
Cc1cc(CNC(=O)C(C)Cc2ccccc2)nn1C (centres undefined)	10
CCOc1ccccc1NC(=O)CC1Nc2ccccc2NC1=O (centres undefined)	17
COc1ccc(/C=C/c2nnc(NC(=O)CSc3ccc(Cl)cc3)s2)cc1	14
O=C(COC(=O)c1cc(=O)[nH]c2ccccc12)c1ccc(Br)cc1	16
O=c1oc2ccc([N+](=O)[O-])cc2c(N2CCOCC2)c1[N+](=O)[O-]	13
O=C1OC(Cc2ccncc2)C(O)=C1C1=NCCCN1 (centres undefined)	17
COC(C(=O)Nc1cc([N+](=O)[O-])ccc1C)c1ccccc1 (centres undefined)	3
O=C(N/N=C1\CC2CC=CC12)c1ccc(Br)cc1 (centres undefined)	9
CCOC(=O)N/N=C/c1c[nH]c2ccccc12	-6
Cc1ccc(NC(=O)Nc2ccc(S(N)(=O)=O)cc2)cc1	14
O=C(COc1ccc2ccc(=O)oc2c1)c1ccccc1	11
O=C(N/N=C/c1ccc(Br)o1)c1cncc(Br)c1	8
CC(C)(C)C(=O)Cn1c(=O)n(CC2CCCO2)c(=O)c2ccccc21 (centres undefined)	11
O=C(O)c1ccc(N=c2oc3cc(O)ccc3cc2C(=O)NCc2ccccc2)cc1	-4
CCc1nc(NC(C)(C)C)c2cnn(-c3ccccc3)c2n1	20
O=C(O/N=C/c1ccc2c(c1)OCO2)c1ccc([N+](=O)[O-])cc1	16
CC(C)(C)c1cc(-n2ccnc2)n2ncc(-c3ccc(Cl)cc3)c2n1	14
COc1ccccc1OCC(=O)NN=C(Cc1ccccc1)Cc1ccccc1	9
CCOC(=O)c1[nH]c2ccc(F)cc2c1NC(=O)CCN1CCOCC1	7
O=C(N/N=C\c1ccc(-c2ccc([N+](=O)[O-])cc2)o1)c1ccc2c(c1)OCO2	12
Cc1ccc(S(=O)(=O)N(C)CC(=O)OCC(=O)Nc2ccccc2)cc1	17
Cc1ccccc1NC1=C(Cl)C(=O)N(C2CCCCC2)C1=O	19
O=C(O)CCC(=O)Nc1ccc(-n2ccc(C(F)(F)F)n2)cc1	8
O=c1c2ccccc2nc(-c2cccs2)n1-c1ccc2ccccc2c1	-2
CCOc1ccc(NC(=O)C[n+]2ccc(N(C)C)cc2)cc1	2

Next part:
SMILES	Calb biofilm kill
NC(=O)CSc1nnc(-c2ccccc2Br)n1-c1cccc(C(F)(F)F)c1	16
O=C(NCC1CCCO1)/C(=C\c1ccco1)NC(=O)c1ccc(Cl)cc1 (centres undefined)	16
CCOC(=O)C1(Cc2ccc(OC)cc2)CCN(C(=O)c2cc3ccccc3[nH]2)CC1	3
CN(C)S(=O)(=O)c1cccc(NC(=O)COC(=O)COc2ccc(Br)cc2)c1	17
COc1cc(/C=C/c2nc3ccccc3s2)cc(OC)c1O	4
Cc1ccc(C(=O)COC(=O)C(C)N2C(=O)C3C4C=CC(C4)C3C2=O)cc1 (centres undefined)	-3
CCNC(=O)CCS(=O)(=O)c1ccc2ccccc2c1	13
N#Cc1c2n(c(=S)n(-c3ccc(OC(F)F)cc3)c1=O)CCCCC2	19
Cn1c(SCC2CCCO2)nnc1-c1cccc([N+](=O)[O-])c1 (centres undefined)	26
O=C(O)CCC(=O)NN1C(=O)c2ccccc2NC1c1ccc(F)cc1 (centres undefined)	27
Cc1ccc(S(=O)(=O)N2CCOCC2)cc1C(=O)N1CCN(S(=O)(=O)c2cccs2)CC1	14
CCOC(=O)CC1C(=O)NCCN1S(=O)(=O)c1ccc(F)cc1 (centres undefined)	8
CC(=O)c1ccc(Cc2ccccc2)cc1	8
CCO[C@@H]1OC(C(=O)N2CCN(C)CC2)=C[C@H](C(C)(C)C)[C@H]1CCCO	18
O=C(NNS(=O)(=O)c1ccccc1[N+](=O)[O-])c1cccc([N+](=O)[O-])c1	9
Cc1ccc(C(=O)N2CCn3c(C)ccc3C2C)cc1 (centres undefined)	4
COc1ccc(C2=CC(=O)C=CC2=O)cc1	18
COc1ccc(CC(=O)NNC(=O)c2c(-c3ccccc3Cl)noc2C)cc1OC	18
Cc1ccc(NC(=O)COC(=O)/C=C/c2ccco2)cc1S(=O)(=O)N(C)C	20
COC(=O)C1(Cc2ccccc2)NC(c2ccc(F)cc2)C2C(=O)N(C)C(=O)C21 (centres undefined)	-5
O=C(CCSCc1ccccc1Cl)NCc1cccs1	20
C=CCn1c(=O)c2ccccc2n2c(SCC(=O)Nc3sc(C(=O)N(CC)CC)c(C)c3C(=O)OCC)nnc12	10
Cc1c(Cl)c([N+](=O)[O-])nn1CCCC(=O)Nc1cccc(Cl)c1	16
Cc1cc(/C=N/NC(=O)C(=O)NCc2ccccn2)c(C)n1-c1cccc(Br)c1	3
Cc1ccccc1N=Cc1cc2c(cc1[N+](=O)[O-])OCO2	12
C#CCOCCOCCOCCNc1nc(N2CCN(C(=O)[C@H]([C@@H](C)CC)n3cc([C@@H](N)CC(C)C)nn3)CC2)nc(N2CCN(C(=O)[C@H](CCCCN)n3cc([C@@H](N)CO)nn3)CC2)n1	15
O=C(NNC(=O)c1cccnc1SCc1cccc([N+](=O)[O-])c1)c1ccc(F)cc1	26
N#C/C(=C(/O)COC(=O)COc1cccc(Br)c1)c1nc2ccccc2[nH]1	17
Cn1cc([N+](=O)[O-])c(C(=O)Nc2ccc(C3CCCCC3)cc2)n1	0
CCCN1C2CCCC1CC(NC(=S)Nc1cccc(C)c1C)C2 (centres undefined)	31
CCOc1ccc(NC(=S)NN2CCN(C)CC2)cc1	7
COc1cccc(C(=O)Nc2nnc(-c3ccc(F)cc3)o2)c1	7
O=C(NNS(=O)(=O)c1ccc(Br)cc1)c1csnn1	-17
CN1CCN(S(=O)(=O)c2ccc(N3CCN(C(=O)c4ccccc4)CC3)nc2)CC1	1
O=C(NCCc1ccccc1)C(=O)NCC1OCCN1S(=O)(=O)c1ccccc1 (centres undefined)	18
CCOc1ccc(=O)n(-c2ccccc2)n1	13
Cc1ccc(C2=NC3(CCCC3)N=C2SCC(=O)Nc2ccc3c(c2)OCCO3)cc1	2
Fc1cccc(NC(=S)NCc2ccc(Cl)cc2)c1	3
Cn1c2c(c(O)c(-c3ccccc3)c1=O)C(=O)CC(C)(C)C2	11
CC(/C=C/c1ccco1)=N/NC(=O)C1COc2ccccc2O1 (centres undefined)	16
CCN1CCN(c2ccc([N+](=O)[O-])cc2S(=O)(=O)N2CCOCC2)CC1	12
CCOC(=O)Nc1ccc(Cc2ccncc2)cc1	25
CC(=O)NNC(=S)NCCc1ccccc1	16
COc1cc(NC(=O)CSc2cc(C)c3cc(C)cc(C)c3n2)c(C(=O)O)cc1OC	11
COc1ccc(N2C(=O)CSC2c2cccc(OC)c2OC)cc1 (centres undefined)	11
CCc1cc(CC)c(/C=N/NC(N)=O)c(CC)c1/C=N/NC(N)=O	20
COC(=O)C(NC(C)=O)(Nc1cc(C)ccn1)C(F)(F)F (centres undefined)	14
COc1cccc(Nc2nnc(SCc3nc4ccccc4s3)s2)c1	-3
CC(=O)Oc1ccc(C2(C)CC(C)(C)NC(=S)N2C)c(OC(C)=O)c1 (centres undefined)	3
CCCC(=O)N1CCN(c2ccc(NC(=O)C(C)(C)C)cc2Cl)CC1	11
CCOc1ccc2c(c1)C(c1cccs1)=NNC(c1cccnc1)=N2	9
COc1cc(/C=C2/SC(=S)N(c3c(C)n(C)n(-c4ccccc4)c3=O)C2=O)ccc1O	-8
CCn1c(SC)nnc1-c1nn(-c2ccccc2)ccc1=O	2
CC(C)OC(=O)CC1C(=O)NCCN1C(=S)NC(=O)c1ccccc1Cl (centres undefined)	13
CC1CCN(C(=O)c2ccc(S(=O)(=O)Cc3cccc(F)c3)c([N+](=O)[O-])c2)CC1	9
CC1(C(=O)NCc2ccc(F)cc2)Oc2ccccc2NC1=O (centres undefined)	12
COc1ccc([N+](=O)[O-])cc1NC(=O)CCN1CCN(c2ccccc2OC)CC1	14
O=C(NC(NC(=S)Nc1cccc(C(=O)O)c1)C(Cl)(Cl)Cl)OCc1ccccc1 (centres undefined)	15
Cc1cc(NC(=O)CSc2nnc(Cc3ccccc3)n2C)no1	21
CC(C)Oc1ccc(/C=C(\NC(=O)/C=C/c2ccco2)C(=O)NCCc2nc3ccccc3[nH]2)cc1	12

The listing continues:
SMILES	Calb biofilm kill
N=c1c[n+](N2CCOCC2)[n-]o1	20
CN(C(=O)Nc1ccc(Cl)cc1Cl)C1CCCC1	14
CCOCCCNC(=O)C(c1ccccc1)N(Cc1ccc2c(c1)OCO2)C(=O)c1ccccc1O (centres undefined)	12
COC(=O)c1ccc(N2CCN(C)CC2)c(NC(=O)c2cccnc2)c1	14
Cc1c(NC(=O)c2cc3c(=O)n4ccccc4nc3s2)c(=O)n(-c2ccccc2)n1C	2
O=C(N/N=C/c1cccc(Br)c1)c1ccc(Cn2cc(Br)cn2)o1	9
C/C(=N\NC(=O)Cn1c(-c2ccccn2)nc2ccccc21)c1ccccc1	4

Structures from the list above containing a Cl atom:
SMILES	Calb biofilm kill
Cn1cc(Cl)nc1C(O)c1ccccc1 (centres undefined)	5
Cc1ccc(NC(=O)c2ccc3c(c2)OCCO3)cc1S(=O)(=O)Nc1cccc(Cl)c1	22
CCOC(=O)/C=C/C(=O)OCC(=O)Nc1c(Cl)cccc1Cl	16
O=C(CC(c1ccccc1)c1ccccc1O)NCc1ccccc1Cl (centres undefined)	15
CSCCOC(=O)COc1ccc(/C=N/NC(=O)c2c(Cl)cnn2C)cc1	18
Cc1onc(-c2c(F)cccc2Cl)c1C(=O)NC(=S)Nc1c(C)n(C)n(-c2ccccc2)c1=O	4
COc1ccc(/C=C/c2nnc(NC(=O)CSc3ccc(Cl)cc3)s2)cc1	14
CC(C)(C)c1cc(-n2ccnc2)n2ncc(-c3ccc(Cl)cc3)c2n1	14
Cc1ccccc1NC1=C(Cl)C(=O)N(C2CCCCC2)C1=O	19
O=C(NCC1CCCO1)/C(=C\c1ccco1)NC(=O)c1ccc(Cl)cc1 (centres undefined)	16
COc1ccc(CC(=O)NNC(=O)c2c(-c3ccccc3Cl)noc2C)cc1OC	18
O=C(CCSCc1ccccc1Cl)NCc1cccs1	20
Cc1c(Cl)c([N+](=O)[O-])nn1CCCC(=O)Nc1cccc(Cl)c1	16
Fc1cccc(NC(=S)NCc2ccc(Cl)cc2)c1	3
CCCC(=O)N1CCN(c2ccc(NC(=O)C(C)(C)C)cc2Cl)CC1	11
CC(C)OC(=O)CC1C(=O)NCCN1C(=S)NC(=O)c1ccccc1Cl (centres undefined)	13
O=C(NC(NC(=S)Nc1cccc(C(=O)O)c1)C(Cl)(Cl)Cl)OCc1ccccc1 (centres undefined)	15
CN(C(=O)Nc1ccc(Cl)cc1Cl)C1CCCC1	14

A portion of the library; count on the stated rates, not on these rows.
